Source: PubChem BioAssay (Johns Hopkins Ion Channel Center)
CHT PAM – CHT positive allosteric modulators, primary screen, cell-based, membrane potential dye, choline EC20; actives 0.49% (n = 310,000); B-score at 10 µM; CHT-expressing cells; stronger effect = higher value; LV-AA mutant CHT in HEK293 cells;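 active = initial fluorescence not abnormally high and integrated response B-score, plate-corrected, over 3 SD above library mean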
Target sequence (Q9GZV3 whole entry, looked up): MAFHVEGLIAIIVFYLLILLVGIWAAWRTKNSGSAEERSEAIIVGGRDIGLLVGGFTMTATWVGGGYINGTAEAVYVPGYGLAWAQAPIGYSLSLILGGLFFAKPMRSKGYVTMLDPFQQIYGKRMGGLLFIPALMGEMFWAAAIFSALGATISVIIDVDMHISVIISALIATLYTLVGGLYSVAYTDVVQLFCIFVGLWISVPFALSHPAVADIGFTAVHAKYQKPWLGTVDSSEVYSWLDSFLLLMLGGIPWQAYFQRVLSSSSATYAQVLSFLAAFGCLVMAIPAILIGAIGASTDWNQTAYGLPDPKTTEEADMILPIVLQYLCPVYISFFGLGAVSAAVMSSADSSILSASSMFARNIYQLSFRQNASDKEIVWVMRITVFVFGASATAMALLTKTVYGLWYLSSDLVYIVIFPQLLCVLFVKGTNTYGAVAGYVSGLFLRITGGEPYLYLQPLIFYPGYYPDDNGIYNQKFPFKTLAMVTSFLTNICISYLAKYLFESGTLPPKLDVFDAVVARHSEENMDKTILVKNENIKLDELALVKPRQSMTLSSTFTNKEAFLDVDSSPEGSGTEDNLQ
Calls only; i = inactive. This is a subset; most or all hits stand in other tables.

SMILES	CHT PAM
CC(C)(C)c1ccc(C(=O)Cn2nc(C(=O)O)c3ccccc3c2=O)cc1	i
COC(=O)c1cc2c(-c3ccccc3)cc3ccccn3c-2c1C(=O)OC	i
CCN(CC)CCCNC(=O)c1cc(Sc2nnc(C)s2)nc2ccccc12	i
COCc1cc(=O)[nH]c(SCCS(=O)(=O)c2ccc(Cl)cc2Cl)n1	i
CC(C)CNS(=O)(=O)c1ccc(CCC(=O)N2CCCC2)cc1	i
COc1ccc(CCNC(C(=O)Nc2cc(C)cc(C)c2)c2ccccc2)cc1 (centres undefined)	i
CCCCn1c(=O)c(CCC(=O)OC(C)C(=O)Nc2cccc(Cl)c2Cl)nc2ccccc21 (centres undefined)	i
COc1ccc(-n2ncc3c(SCC(=O)N4CCN(c5ccccc5OC)CC4)ncnc32)cc1	i
COc1cc(C(=O)Nc2cc(C(F)(F)F)ccc2Cl)cc(OC)c1OC	i
O=C(OCc1cccc([N+](=O)[O-])c1)c1cccnc1Cl	i
C#Cc1ccc([C@H]2C=C(C(=O)NC3CC3)O[C@@H](OCC)[C@@H]2CCCO)cc1	i
COC(=O)C1=NN(C(=O)c2ccc(C)cc2)C(O)(c2ccc(Cl)cc2)C1 (centres undefined)	i
COc1cccc(C2NC(=O)NC(C)=C2C(=O)Nc2ccc(C)cc2)c1OC (centres undefined)	i
CCC1Nc2ncnc(N3CCN(c4ccccc4)CC3)c2N(Cc2ccc(C)cc2)C1=O (centres undefined)	i
Cc1cc(C(=O)NCC(=O)OCC(=O)N(C(C)C)C(C)C)ccc1[N+](=O)[O-]	i
O=C(NCC1CCCO1)c1ccc(Cl)c(F)c1F (centres undefined)	i
CC(=O)Nc1cccc(C(=O)OC(C)C(=O)NCc2ccc3c(c2)OCO3)c1 (centres undefined)	i
COc1ccc(/C=C/C(=O)c2cc(F)ccc2OC(=O)c2ccccc2)cc1OC	i
Cc1noc(N)c1C(=O)Nc1ccc(F)cc1	i
COc1ccccc1C1C2C(=O)N(c3ccccc3)C(=O)C2ON1c1ccccc1 (centres undefined)	i
Cc1ccc(C)c(N(C(=O)CNC(=O)c2ccco2)C(C(=O)NCC2CCCO2)c2ccccc2)c1 (centres undefined)	i
Cc1ccc(S(=O)(=O)c2nc(-c3ccc(F)cc3)oc2SCC(N)=O)cc1	i
COc1ccc(NC(=S)N2CCN(S(C)(=O)=O)CC2)cc1OC	i
Cc1ccc(NC(=O)CN(C)C(=O)Nc2ccc(C)cc2)cc1	i
Cc1cc[n+](-c2[nH]c(=O)sc2/C=N/N=C(\[O-])CCn2c3ccccc3c3ccccc32)cc1	i

Further structures follow.
SMILES	CHT PAM
CC(C)(C)c1cc(C(=O)NN)n(Cc2ccc(F)cc2)n1	i
O=C(c1cncc(Br)c1)N1CCc2ccccc2C1	i
COc1ccc(C2C(C#N)=C(N)Oc3cc(C)n(Cc4ccncc4)c(=O)c32)cc1 (centres undefined)	i
COc1ccc(N(CC(=O)N2CCN(c3ccc(F)cc3)CC2)S(=O)(=O)c2c(C)n[nH]c2C)cc1	i
Cc1ccc2nc(SCc3cn4c(C)cc(C)nc4n3)[nH]c2c1	i
CCN(CC)S(=O)(=O)c1cccc(NC(=O)C2CC(=O)N(c3ccc4c(c3)OCCO4)C2)c1 (centres undefined)	i
C=CCNC(=S)N/N=C/c1ccc(C)c([N+](=O)[O-])c1	i
CCC1CCCCN1CCCNC(=O)c1ccc2c(c1)NC(=O)CN2C (centres undefined)	i
O=C(NCCC1CCCCN1S(=O)(=O)c1ccccc1)C(=O)NCC1CCCO1 (centres undefined)	i
O=C(CSc1ncccc1C(=O)O)c1cccc(C(F)(F)F)c1	i
O=C(CCC(=O)OCc1ccc(Br)cc1)Nc1ccccc1	i
O=c1c2ccccc2ncn1-c1ccc(Cl)cc1[N+](=O)[O-]	i
O=C(CSCc1ccccc1)NCCCN1CCOCC1	i
COc1cc(C#CC#CCN2CCCCC2)ccc1O	i
Cc1cc(S(=O)(=O)N2CCN=C2c2ccccc2)c(C)cc1Cl	i
Cc1ccc(C(C)C)c(OCCCCCN2CCOCC2)c1	i
O=[N+]([O-])c1ccc(C(=S)N2CCN(c3ccc(F)cc3)CC2)cc1	i
COc1ccc2c(c1)CCc1cn3nc(C)cc3nc1-2	i
O=S(=O)(Nc1ncccn1)c1ccc(NC(=S)NCCc2ccc(Cl)cc2)cc1	i
CC(=O)c1c(C)[nH]c(C(=O)Nc2cc(C)cc(C)c2)c1C	i
Cc1c(C(=O)N2CCOCC2)[nH]c2c1C(=O)CC(c1ccccc1Cl)C2 (centres undefined)	i
Cc1cc(NC(=O)CSc2nnc(-c3cccc(Cl)c3)o2)no1	i
CC1(C)CC(=O)C/C(=N\NC(=O)Cc2ccccc2)C1	i
O=C(NCCOc1ccccc1)c1ccc2c(c1)OCO2	i
Cc1nnc(NC(=O)CSc2nnnn2Cc2ccccc2)s1	i

Following part.
SMILES	CHT PAM
COc1cccc(NC(=O)OCCN2CCN(Cc3ccccc3)CCC2=O)c1	i
COCCOC(=O)C(CC(=O)O)NCc1ccco1 (centres undefined)	i
COc1cc([N+](=O)[O-])ccc1NC(=O)NCc1ccccn1	i
COc1ccc2nc(-c3ccccc3)cc(OC)c2c1	i
C/C(=N\NC(=O)c1nc(C)cc(C)n1)c1ccccc1	i
O=C1Nc2ccccc2S/C1=C/NCc1ccccc1Cl	i
O=C(O)C1=C[C@H](c2coc3ccccc3c2=O)C[C@H](OCCCCO)O1	i
COc1ccc(CCNS(=O)(=O)c2ccc(Cl)s2)cc1OC	i
O=C(O)c1ccc2oc(SCC(=O)N3CCCCC3)nc2c1	i
Cc1ccc(-c2nnn(CC(=O)N(CC3CCCO3)C(C(=O)NC3CCCC3)c3ccc(O)cc3)n2)o1 (centres undefined)	i
CCOCCCNC(=O)CCc1nnc2n(CCC(C)C)c(=O)c3ccccc3n12	i
Cc1ccc(S(=O)(=O)NCc2cn3c(C)csc3n2)cc1	i
Cn1c(SC2CCCCC2=O)nnc1-c1ccccc1F (centres undefined)	i
CCN(CC)S(=O)(=O)c1ccc(-c2nnc(SCC(=O)Nc3ccc(OC)c(OC)c3)o2)cc1	i
Cc1nnc(SCCCOc2ccccc2)nc1C	i
COc1cccc(C(=O)NNC(=O)C(=O)Nc2cccc(Cl)c2C)c1	i
CCn1nc(C(=O)OCC(=O)N2c3ccccc3CC2C)c2ccccc2c1=O (centres undefined)	i
Cc1ccc(C(=O)NCCNc2ncc(C(F)(F)F)cc2Cl)cc1[N+](=O)[O-]	i
COc1ccc(CCNC(=O)C23CN(Cc4ccccc4)CC2C(c2cccc([N+](=O)[O-])c2)=NO3)cc1 (centres undefined)	i
O=C(O)C1OC(Oc2c(-c3ccc(O)c(O)c3)oc3cc(O)cc(O)c3c2=O)C(O)C(O)C1O (centres undefined)	i
COc1ccc([C@@H]2[C@@H]3C(=O)N(C(C)(C)C)C(=O)[C@@H]3[C@]3(C)C(=O)N(c4cccc(F)c4)C(=O)N23)cc1	i
COC(=O)C1=C(C)NC(=O)NC1c1cn(-c2ccccc2)nc1-c1cccs1 (centres undefined)	i
O=C(c1cccs1)n1nc(-c2ccco2)nc1SCc1ccccc1	i
COC(=O)c1nnn(-c2nonc2N)c1CSc1ccccn1	i
CCOC(=O)c1ccc2[nH]cc(C(C)=O)c(=O)c2c1	i

Among those listed so far, these have a COOH group.
SMILES	CHT PAM
CC(C)(C)c1ccc(C(=O)Cn2nc(C(=O)O)c3ccccc3c2=O)cc1	i
O=C(CSc1ncccc1C(=O)O)c1cccc(C(F)(F)F)c1	i
COCCOC(=O)C(CC(=O)O)NCc1ccco1 (centres undefined)	i
O=C(O)C1=C[C@H](c2coc3ccccc3c2=O)C[C@H](OCCCCO)O1	i
O=C(O)c1ccc2oc(SCC(=O)N3CCCCC3)nc2c1	i
O=C(O)C1OC(Oc2c(-c3ccc(O)c(O)c3)oc3cc(O)cc(O)c3c2=O)C(O)C(O)C1O (centres undefined)	i

Reformatted with each value named: entries from further up.
O=C(CSc1ncccc1C(=O)O)c1cccc(C(F)(F)F)c1
  CHT PAM = i

O=C(CCC(=O)OCc1ccc(Br)cc1)Nc1ccccc1
  CHT PAM = i

O=c1c2ccccc2ncn1-c1ccc(Cl)cc1[N+](=O)[O-]
  CHT PAM = i

O=C(CSCc1ccccc1)NCCCN1CCOCC1
  CHT PAM = i

Remaining list, next part:
SMILES	CHT PAM
NS(=O)(=O)c1ccc(NC(=O)COC(=O)C2(c3ccc(F)cc3)CCCC2)cc1	i
CCn1c(C)nnc1SCC(=O)Nc1ccc(C(C)=O)cc1	i
CNC(=O)NCC12CC3CC(CC(C3)C1)C2	i
Clc1ccc(SCc2cn3cccnc3n2)cc1	i
COc1ccccc1/C=C/CN1CCN(Cc2ccc(F)cc2)C(CCO)C1 (centres undefined)	i
COc1ccc(NC(=O)c2ncn[nH]2)cc1	i
Cc1ncc(S(=O)(=O)c2ccccc2)c(-c2ccccc2)n1	i
COc1ccc(C(=O)Nc2ccc3nc(C)sc3c2)cc1OC	i
COc1ccc(C2C3=C(CC(C)(C)CC3=O)Nc3c2c(=O)[nH]c2nc(C)nn32)cc1 (centres undefined)	i
COc1cccc(NC(=O)c2cc(C(=O)Nc3cccc(OC)c3)n(C)n2)c1	i
CC[C@@]1(c2ccccc2OC)C(=O)N(C(=O)OC)N1C(=O)OC	i
Cc1ccc(C)c(S(=O)(=O)N2C(=S)NC(=O)C2C(C)C)c1 (centres undefined)	i
Fc1cccc(Cl)c1Cn1nnc2c(NCc3ccccn3)ncnc21	i
CCn1ncc(C2=NOC(C(=O)Nc3cccc(C(C)=O)c3)C2)c1C (centres undefined)	i
CCSCc1nnc(SCC(=O)Nc2cccc(SC)c2)n1C	i
COc1ccc(Cl)cc1C(=O)Nc1cccc2ncccc12	i
COc1ccc(CN2C(=O)CCC2(C)C(=O)NC2CCCCC2)c(OC)c1 (centres undefined)	i
COc1ccc(N(Cc2ccccc2)S(=O)(=O)c2cccc(C(=O)NC3=NCCS3)c2)cc1	i
CCCN(CC(=O)Nc1ccccc1OC)C(=O)c1cccc(S(=O)(=O)NCc2ccccc2)c1	i
Cc1ccc(C(=O)COC(=O)CN2C(=O)C3C4C=CC(C4)C3C2=O)cc1[N+](=O)[O-] (centres undefined)	i
CCN(CC)S(=O)(=O)c1ccc(C)c(NC(=O)/C=C/c2cccs2)c1	i
Cn1c(SCC(N)=O)nnc1-c1cnccn1	i
COc1ccc(OCC(O)CNC(=O)Nc2ccccc2)cc1 (centres undefined)	i
CCC(=O)N1CCN(c2ccc(NC(=O)c3ccc(Br)o3)cc2)CC1	i
CC(C)CCn1c(=O)c2ccccc2n2c(CCC(=O)NC3CCN(Cc4ccccc4)CC3)nnc12	i

Laid out differently: results already given
Structure: COc1ccc(NC(=O)c2ncn[nH]2)cc1
  CHT PAM = i

Structure: Cc1ncc(S(=O)(=O)c2ccccc2)c(-c2ccccc2)n1
  CHT PAM = i

Structure: COc1ccc(C(=O)Nc2ccc3nc(C)sc3c2)cc1OC
  CHT PAM = i

(further entries)
SMILES	CHT PAM
CCOc1ccccc1N1CCN(C(=O)NCc2ccc(F)cc2)CC1	i
CCOC(=O)c1sc(=NC(=O)c2ccc(Cl)s2)n(C)c1C	i
COc1cc(/C=C/C(=O)N2CCN(C(=O)/C=C/c3cc(OC)c(OC)c(OC)c3)CC2)cc(OC)c1OC	i
COC(=O)c1sc(N)nc1C(C)(C)C	i
COc1ccc(CCn2c(-c3ccco3)nc3nc4ccccc4nc32)cc1	i
CC1=NN(C(=O)COc2ccc(C)c(C)c2)C(O)(c2ccccc2)C1 (centres undefined)	i
CC(C)O/N=C1\C(=O)N(c2ccccc2)c2ccccc21	i
Cc1nn(-c2ccccc2)c(C)c1/C=N/NC(=O)CSc1nnc(SCc2ccc(Cl)cc2)s1	i
COc1cc2oc(=O)c3c(c2cc1OCC(=O)c1c(C)n(C)c2ccccc12)CCCC3	i
CC(OC(=O)Cc1n[nH]c(=O)c2ccccc12)C(=O)Nc1ccccc1[N+](=O)[O-] (centres undefined)	i
CCOC(=O)C1=C(c2ccccc2)Nc2ncnn2C1c1cccc(OC)c1OC (centres undefined)	i
COc1ccccc1N(CN1CCCC1=O)C(=O)c1c(F)cccc1Cl	i
COc1ccc2[nH]c(=O)c(C(c3nnnn3C3CCCCC3)N3CCN(C)CC3)cc2c1 (centres undefined)	i
CC1CCc2c(nc3ncnn3c2N2CCN(c3ccccc3)CC2)C1 (centres undefined)	i
COc1ccc(S(=O)(=O)N2CCCN(CCC(=O)Nc3cccc(C(F)(F)F)c3)CC2)cc1	i
COc1cc(C)nc(N2CCCC(C(=O)NCC(C)C)C2)n1 (centres undefined)	i
COc1ccc(/C=C/C(=O)Nc2ccncc2)cc1OC	i
Cc1cc(C)cc(-n2c(C)cc(/C=N/NC(=O)c3ccncc3)c2C)c1	i
COc1ccc(C(=O)C2CCCN(C(=O)c3cc(C(C)C)no3)C2)cc1F (centres undefined)	i
NNC(=O)C1CC(O)CN1S(=O)(=O)c1ccc(Cl)cc1 (centres undefined)	i
CCOC(=O)c1csc(NC(=O)c2ccc(OCC)cc2)n1	i
CCCCN(Cc1ccccc1)C(=O)c1cnc2n(c1=O)CCS2	i
OCCC1CN(Cc2nc3ccc(F)cc3[nH]2)CCN1C1CCCC1 (centres undefined)	i
N#CC1=C(SCC(=O)Nc2ccccc2)NC(=O)CC1c1ccco1 (centres undefined)	i
COc1cc2c(cc1OC)/C(=C/c1ccc(Cl)cc1)C(=O)OC2	i
CC1CCc2c(sc(NC(=O)c3ccco3)c2C(=O)O)C1 (centres undefined)	i
O=C(CSc1nnc(-c2cccnc2)n1CCc1ccccc1)NCc1ccccc1	i
Cc1ccc(CS(=O)(=O)Cc2ccc(C(=O)NCC3CCCO3)o2)cc1 (centres undefined)	i

Part of the list above, as labelled records:
COc1cccc(C(=O)NNC(=O)C(=O)Nc2cccc(Cl)c2C)c1
  CHT PAM: i

CCn1nc(C(=O)OCC(=O)N2c3ccccc3CC2C)c2ccccc2c1=O (centres undefined)
  CHT PAM: i
